# From PubChem BioAssay
# Mtb bLac sens: beta-lactam sensitization of Mtb H37Rv, H37Rv; M. tuberculosis H37Rv growth with meropenem, percent inhibition; hits of this screen are not shown here; inhibition, % at 25 µM; 330,000 tested, 0.27% active; AID 434955, 2010;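 active = about 74% or more and at least 40 points above the plate without the antibiotic, then above 30% in a dose series; inconclusive = first-round hits that could not be retested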;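 also: growth measured after seven days incubation then overnight dye step; 0% = bacteria only wells and 100% = bacteria with antibiotic; twin plates without the antibiotic show which effects depend on it; some results filed as inactive read as strong as hits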
# Active calls of the source: *; ? = inconclusive. Some of the compounds tested; count on the stated rates, not on these rows.
SMILES,Mtb bLac sens
BrCC(Br)C1CCC(Br)C(Br)C1 (stereo not drawn),54.8
COC(=O)[C@]1(Cc2ccccc2)N[C@H](CN(C)C(C)=O)[C@@H]2C(=O)N(Cc3ccccc3)C(=O)[C@@H]21,-7.0
COc1ccc(/C=C/c2c(-c3ccc(OC)cc3)oc(=O)c3cc(OC)c(OC)cc23)cc1,-7.8
CCOC(=O)[C@H]1[C@H]2COc3ccccc3[C@@H]2N2C(=O)CN(Cc3ccc(C)cc3)C(=O)[C@@]12C,-2.5
COc1ccc(C(=O)N2CCNC(=O)C2)cc1S(=O)(=O)Nc1ccc(Br)cc1,-1.9
Cc1cc(C(=O)CSc2ncnc3ccccc23)c(C)n1C1CC1,2.9
CCOc1ccc(NC(=O)COC(=O)c2n[nH]c3ccccc23)cc1,-4.8
NC(=O)C[C@H](NC(=O)c1ccc(Cl)cc1)C(=O)OCc1ccccc1,-0.2
CC1(C)CC2CC(C)(CN2C(=O)COC(=O)c2ccccc2C(F)(F)F)C1 (stereo not drawn),-6.0
Cc1cc(OCC(=O)OCC(=O)Nc2cc(S(=O)(=O)N3CCOCC3)ccc2Cl)ccc1Cl,2.9
COc1ccc(C(=O)O/N=C2\C(=O)N(C)c3ccccc32)cc1,4.7
O=C(NCC(c1cccs1)N1CCOCC1)c1ccc(Cl)nc1 (stereo not drawn),-4.6
O=C(COc1ccc(F)cc1Cl)Nc1cccc(S(=O)(=O)N2CCCC2)c1,-3.6
Cc1cc(C(=O)COc2ccccc2Cl)c(C)n1C1CC1,0.8
CCC(C(=O)OCC(=O)c1ccc(OC)cc1OC)c1ccccc1 (stereo not drawn),-2.3
COC(=O)[C@@H](CC(C)C)NS(=O)(=O)N(Cc1ccccc1)[C@@H](CC(C)C)C(=O)OC,4.5
CN(C(=O)c1ccc(NC(=O)Cc2ccc(NC(=O)C3CCCN(C(=O)C4CCCCC4)C3)cc2)cc1)C1CC1 (stereo not drawn),-0.7
CC(C)(O)c1cc2ccc(C#Cc3ccsc3)cc2c(=O)o1,70.8
Cc1cnc(C(=O)OCC(=O)NC(C)c2ccccc2)cn1 (stereo not drawn),-1.7
CCN(C(=O)CSc1nc2ccccc2c(=O)n1-c1ccccc1F)C1CCS(=O)(=O)C1 (stereo not drawn),1.2
COc1ccc(Cl)cc1C(=O)NCC(c1ccco1)N(C)C (stereo not drawn),-3.7
O=C(CCc1nc2ccccc2c(=O)[nH]1)NNC(=O)c1ccc(F)cc1,-0.5
O=C(COC(=O)CN1C(=O)NC2(CCCC2)C1=O)NCc1ccc(Cl)cc1Cl,-8.3
CC(C)Cn1c(N)c(C(=O)COC(=O)c2ccc(Br)cc2)c(=O)n(C)c1=O,20.1
O=C(c1ccc(OC2CCN(Cc3ccccn3)CC2)cc1)N1CCC[C@H]1CO,?
COc1ccccc1C(=O)OCC(=O)Nc1cccc(S(=O)(=O)NC2=NCCCCC2)c1,1.6
Cc1ccccc1OCC(=O)OCC(=O)Nc1ccc2c(c1)OCO2,0.8
Nn1cnnc1SCC(=O)N1CCc2ccccc2C1,-0.2
O=C(COC(=O)CNC(=O)c1ccccc1)NC(=O)NC1CCCCC1,-5.3
Cc1ccc(C(=O)N[C@H](C(=O)NC2CCCCC2)C(C)C)cc1,-2.6
Brc1ccc(-c2c(-c3ccsc3)sc3ccccc23)cn1,49.7
O=C(Nc1cccc(Br)c1)c1ccc2c(c1)SC1=NS(=O)(=O)CCN12,0.6
O=C(Nc1ccc(OCC(=O)N2CCOCC2)cc1)c1ccccc1Cl,-5.2
CC(C)(C)OC(=O)C[C@@H]1C/C=C\C[C@H](CC(=O)N(CCO)Cc2ccccc2)C(=O)NC[C@@H](c2ccccc2)OC1=O,-8.2
COc1ccc(C(CNC(=O)C2CC(=O)N(Cc3ccccc3)C2)N2CCOCC2)cc1 (stereo not drawn),-5.0
CN(CC(=O)Nc1ccccc1Cl)C(=O)c1ccc(Cl)c(S(=O)(=O)N2CCCCCC2)c1,0.2
C#CCCc1ccccc1/C=[N+](/C)[O-],-3.2
CCOC(=O)C1=C(C)NC(C)=C(C(=O)OCC)C1C(=O)OCC(=O)NCc1ccccc1,-3.5
O=C(CN1CCN(c2ccc(F)cc2)CC1)N(C1CCCC1)C1CCS(=O)(=O)C1 (stereo not drawn),-3.0
COc1ccccc1C(=O)NC(=O)COC(=O)CNC(=O)c1ccccc1F,-6.5
COc1ccc(CN2CCCN(C)CC2)c(OC)c1C,2.0
O=C(c1cnn(C(=O)c2ccccc2F)c1)c1ccccc1O,32.0
O=C(Nc1cccc(Cl)c1)C1C2C=CC3(O2)C1C(=O)N(CCCN1CCCCC1)C3C(=O)NC1CCCCC1 (stereo not drawn),4.6
CSc1ccccc1NC(=O)COC(=O)/C=C/c1ccco1,44.9
Cc1ccc(S(=O)(=O)N2CCCCC2)cc1C(=O)N1CCCCCC1,-4.5
COc1ccc(NC(=O)c2cccc(S(=O)(=O)NCc3ccccc3)c2)cc1S(N)(=O)=O,0.1
O=C(NC1CC1)c1cccc(S(=O)(=O)N2CCOCC2)c1,2.7
Cc1cccc(CCN2C(N(C)C)=NC[C@@H]2CC(C)C)c1,1.8
CCOC(=O)c1nc(C(=O)NCc2ccc(C)cc2)nc2ccccc12,-5.5
O=C(CCNC(=O)c1ccc(Br)cc1)NCc1ccccc1F,0.7
# Remaining list, next part
SMILES,Mtb bLac sens
COc1ccc2c(CC(=O)N3CCN(S(=O)(=O)c4ccc(F)cc4)CC3)coc2c1,-1.3
C#CCOCCOCCOCCNc1nc(N2CCN(C(=O)Cn3cc(CCCN=C(N)N)nn3)CC2)nc(N2CCN(C(=O)[C@H](CCCCN)n3cc(CCC(=O)O)nn3)CC2)n1,-9.5
CCCNC(=O)C(Cc1ccccc1)NC(=O)c1ccc(C(C)(C)C)cc1 (stereo not drawn),37.7
Cc1ccc(-n2ncc3c(=O)[nH]c(SCC(=O)NCC4CCCO4)nc32)cc1 (stereo not drawn),3.0
COc1cc(C)cc(OC)c1OCC(=O)Nc1cc(C)on1,-1.6
CNc1snc(C)c1C(=O)OCC(=O)c1ccc(Cl)cc1,-1.1
Cc1cccc(NC(=O)CNC(=O)c2cn(Cc3ccccc3)nc2-c2cccnc2)c1C,-3.9
C[C@H](CO)N1C[C@H](C)[C@H](CN(C)S(=O)(=O)c2cn(C)cn2)Oc2ccc(NC(=O)Nc3ccc(C(F)(F)F)cc3)cc2CC1=O,-1.4
CC1CCCN(C(=O)COC(=O)C2=COCCO2)C1 (stereo not drawn),15.4
Cc1cccc(C)c1NC(=O)c1ccc(N2CCCC2=O)cc1,2.1
CC(CCc1ccccc1)NC(=O)CCC1CCCC1 (stereo not drawn),-2.1
CCc1nc2ccc(C(=O)N(C)CC(=O)Nc3ccccc3C(F)(F)F)cc2nc1CC,-4.8
C[C@H](CO)N1C[C@H](C)[C@@H](CN(C)C(=O)Nc2ccc(C(F)(F)F)cc2)Oc2c(NC(=O)Nc3ccccc3)cccc2C1=O,14.6
O=C(COC(=O)COc1ccc(Cl)cc1)NCCCc1ccccc1,-8.3
CCCCNC(=O)CN(Cc1ccco1)S(=O)(=O)c1ccc(C(C)=O)cc1,-0.5
CCOc1cccc(NC(=O)CSc2sc3c(O)cc(=O)[nH]c3c2C#N)c1,2.1
CCOC(=O)[C@@H]1[C@H]2COc3ccc(Br)cc3[C@H]2N2C(=O)N(c3cccc(C)c3)C(=O)[C@]12C,0.5
O=C(Nc1ccccc1F)N1CCC(NC(=O)C23CC4CC(CC(C4)C2)C3)CC1,-4.2
Cc1ccc2nc3n(c(=O)c2c1)-c1cc(Cl)ccc1C(=O)NC3Cc1ccccc1 (stereo not drawn),1.1
O=C(O)c1cc(S(=O)(=O)N2CCCCC2)ccc1N1CCCCC1,4.5

# Filtered by structure: those above with an aryl methoxy group.
SMILES,Mtb bLac sens
COc1ccc(/C=C/c2c(-c3ccc(OC)cc3)oc(=O)c3cc(OC)c(OC)cc23)cc1,-7.8
COc1ccc(C(=O)N2CCNC(=O)C2)cc1S(=O)(=O)Nc1ccc(Br)cc1,-1.9
COc1ccc(C(=O)O/N=C2\C(=O)N(C)c3ccccc32)cc1,4.7
CCC(C(=O)OCC(=O)c1ccc(OC)cc1OC)c1ccccc1 (stereo not drawn),-2.3
COc1ccc(Cl)cc1C(=O)NCC(c1ccco1)N(C)C (stereo not drawn),-3.7
COc1ccccc1C(=O)OCC(=O)Nc1cccc(S(=O)(=O)NC2=NCCCCC2)c1,1.6
COc1ccc(C(CNC(=O)C2CC(=O)N(Cc3ccccc3)C2)N2CCOCC2)cc1 (stereo not drawn),-5.0
COc1ccccc1C(=O)NC(=O)COC(=O)CNC(=O)c1ccccc1F,-6.5
COc1ccc(CN2CCCN(C)CC2)c(OC)c1C,2.0
COc1ccc(NC(=O)c2cccc(S(=O)(=O)NCc3ccccc3)c2)cc1S(N)(=O)=O,0.1
COc1ccc2c(CC(=O)N3CCN(S(=O)(=O)c4ccc(F)cc4)CC3)coc2c1,-1.3
COc1cc(C)cc(OC)c1OCC(=O)Nc1cc(C)on1,-1.6

# Next section:
SMILES,Mtb bLac sens
CCCCN(C(=O)c1ccc(-c2ccc([N+](=O)[O-])cc2)o1)c1c(N)n(CC(C)C)c(=O)[nH]c1=O,-0.9
CC1CCCCC12NC(=O)N(CC(=O)OCC(=O)N(C)C1CCCCC1)C2=O (stereo not drawn),-5.8
O=S(=O)(Nc1cccc(S(=O)(=O)N2CCCC2)c1)c1cccs1,-12.5
O=C(O)/C(=C\c1ccc(C(F)(F)F)cc1)c1ccc(S(=O)(=O)N2CCCC2)s1,-4.3
O=C(COC(=O)C1CC2CCCC(C1)C2=O)NC(=O)c1ccccc1 (stereo not drawn),-12.2
O=C(COc1ccccc1Cl)NNC(=O)c1ccc(-n2cncn2)c([N+](=O)[O-])c1,-3.8
CS(=O)(=O)c1ccc2nc(NC(=O)CCNC(=O)c3ccccc3Cl)sc2c1,0.3
Cc1ccc(S(=O)(=O)N2[C@@H](c3ccc(F)cc3)C(C(=O)O)=CC[C@H]2c2ccc3c(c2)OCO3)cc1,-2.1
CC(C)CCNC(=O)c1nn(Cc2ccccc2)c(=O)c2ccccc12,-5.6
COc1ccc(NC(=O)CSc2nnc3n2CCCCC3)cc1S(=O)(=O)N1CCOCC1,3.4
C=CCN1CCCC1CNC(=O)c1cc2[nH]nnc2cc1OC (stereo not drawn),-2.0
CCC(C(=O)N(C(C)C)C(C)C)c1ccccc1 (stereo not drawn),5.3
CCN1C(=O)[C@H]2[C@@H](c3ccc(-c4ccc(OC)cc4)c(OC)c3)N[C@@](CC(C)C)(C(=O)OC)[C@H]2C1=O,-2.6
CSc1nsc(NC(=O)CCNC(=O)c2ccc([N+](=O)[O-])cc2)n1,-2.5
CC(C)N(C(=O)[C@H]1CC(CC(=O)NCCCN(C)C)C(=O)N2CCc3c([nH]c4ccccc34)[C@]12C)C(C)C (stereo partly drawn),-11.2
COC(=O)c1c(C)[nH]c(C(=O)C(C)OC(=O)C2CC(=O)N(CCc3ccccc3)C2)c1C (stereo not drawn),5.9
Cc1ccc(OCCC(=O)Nc2ccc(C)c(S(=O)(=O)N3CCOCC3)c2)cc1,2.2
O=C(COC(=O)c1cc(-c2ccccc2)nc2ccccc12)NC1CC1,-1.8
Cc1nc(SCC(=O)N(C)C2CCS(=O)(=O)C2)c(C#N)c(C)c1C (stereo not drawn),3.6
CS(=O)(=O)N(Cc1ccccc1Cl)c1ccc(C(=O)N2CCCC2)cc1,-2.4
COC(=O)C1=C(c2ccc(Cl)c(C(F)(F)F)c2)C[C@@H]2CC[C@H]1N2C(=O)NCCNC(C)=O,1.2
O=C(CNS(=O)(=O)c1ccc(Cl)cc1)N1CCN(c2ccc(F)cc2)CC1,-2.9
CC(C)(C)OC(=O)C[C@H]1C/C=C\C[C@H](CC(=O)NCCO)C(=O)N[C@@H](Cc2ccccc2)COC1=O,-11.0
CCOc1ccc(N(C)S(=O)(=O)c2ccc(C)c(C(=O)Nc3nnc(C4CC4)s3)c2)cc1,4.9
O=C(CSc1ccc2c(c1)OCCO2)Nc1ncccc1O,1.0
COCCNC(=O)c1cc(-c2ccccc2C)n(CC2CC(c3cccc([N+](=O)[O-])c3)=NO2)n1 (stereo not drawn),-2.1
CCN(CC)C(=O)n1c(Cc2ccccc2)nc2ccccc21,0.9
O=C(Nc1ccccc1OC(F)F)c1ccc(S(=O)(=O)N2CCCC2)cc1,-13.9
COc1ccc(/C=N/NC(=O)c2c(Br)cnn2C)c2ccccc12,?
Cc1nn(-c2ccccc2)nc1C(=O)OCC(=O)N1CCC(C)CC1,78.5
Cc1cc(C)c(S(=O)(=O)N2CCN(C(=O)CCOc3ccccc3C)CC2)c(C)c1,2.2
O=C(Nc1ccc(S(=O)(=O)N2CCCC2)cc1)c1ccc(Br)o1,-2.1
Cc1cc(NC(=O)COc2ccc3ccccc3c2)no1,5.2
O=C(OCC(=O)N1CCc2ccccc21)[C@@H]1CC(O)CN1S(=O)(=O)c1ccc(Cl)cc1 (stereo partly drawn),-2.8
O=C(Cc1ccccc1)NCC(=O)N1CCCC1,-6.2
COc1ccc(CCNC(=O)CN2C(=O)NC3(CCCCC3C)C2=O)cc1 (stereo not drawn),75.5
CC[C@H]1CN2CCC1C[C@H]2[C@H](O)c1ccnc2ccc(OC)cc12 (stereo partly drawn),-1.4
O=C1N[C@@H](Cc2ccccc2)COC(=O)[C@H](Cc2ccc(F)cc2)C/C=C\C[C@H]1CC(=O)N(CCO)Cc1ccccc1,12.0
O=C(O)COc1ccccc1C=NNC(=O)c1ccc(NS(=O)(=O)c2cccs2)cc1,3.1
COc1ccc(C(=O)OCC(=O)c2ccc3[nH]c(=O)[nH]c3c2)c(OC)c1OC,-1.1
C[C@@H]1COC(=O)[C@H](CC(=O)OC(C)(C)C)C/C=C\C[C@H](CC(=O)N(CCO)Cc2ccccc2)C(=O)N1,-7.2
COc1cccc(NC(=O)C(C)OC(=O)c2n[nH]c3ccccc23)c1 (stereo not drawn),-9.4
O=C(c1ccc(Cl)c(S(=O)(=O)NCc2cccnc2)c1)N1CCCC1,-2.9
